# Six1-Eya2 inh: inhibitors of human Six1/Eya2 interaction; Q15475+O00167; AlphaScreen GST-Six1/His-Eya2 binding, biochemical; hits give low values; control for the full effect not named in the record; activity change, % (no concentration beside the values); 360,000 tested, 0.56% active; AID 651725; in the data active = activity change below about -65%; inconclusive = about -30% to -65%; inactive = above about -30%; note: % is set by controls: 0 for no effect and ±100 for the full control effect; compound concentration not given in the record
#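 Six1/Eya2 binding was read as AlphaScreen signal after compounds were pinned into GST-Six1 plus His-tagged Eya2 (5X stock 250/500 nM) in pH 8.0 Tris/NaCl/TCEP buffer, beads added, then incubated 1 h, 37 C, dark.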
# PINK1 modulator: changes PINK1 expression | Potency, µM (highest dose often 76.6 µM), for inactives: at the highest dose activation (PINK1 increase), usual class: activators | 410,000 tested, 0.2% active | PINK1 immunofluorescence, high-content cytometry, 24 h | AID 624263; active = well fitted activation curve with a large enough effect; inconclusive = small, poorly fitted or top-dose-only effect; inactive = flat fitted curve, though single readings scatter; cell line not stated here;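 note: potency is the fitted concentration of half-maximal effect; % of control where 0% means no effect; nearly all actives have a fitted effect of over 65% in size; a mitochondrial uncoupler was the plate control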
#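 A stable cell line was treated with compounds at 5 concentrations for 24 hours, with CCCP as control. PINK1 levels and mitochondrial localization were measured by immunofluorescence with mitochondrial, cell and nuclear markers after fixation, read by laser-scanning cytometry.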
# D2 agonist: activates the human D2 dopamine receptor | activation, % (no concentration beside the values) | P14416 | 360,000 tested, 0.084% active | AID 624465 | DiscoveRx PathHunter D2 beta-arrestin, luminescence, 90 min; 100% = 57 uM dopamine signal; in the data active = activation above about 40%; inconclusive = about 15% to 40%; inactive = below about 15%; note: compound concentration not given in the record; the text of the record calls up to 30% inactive
# Target sequence (P14416 whole entry, looked up): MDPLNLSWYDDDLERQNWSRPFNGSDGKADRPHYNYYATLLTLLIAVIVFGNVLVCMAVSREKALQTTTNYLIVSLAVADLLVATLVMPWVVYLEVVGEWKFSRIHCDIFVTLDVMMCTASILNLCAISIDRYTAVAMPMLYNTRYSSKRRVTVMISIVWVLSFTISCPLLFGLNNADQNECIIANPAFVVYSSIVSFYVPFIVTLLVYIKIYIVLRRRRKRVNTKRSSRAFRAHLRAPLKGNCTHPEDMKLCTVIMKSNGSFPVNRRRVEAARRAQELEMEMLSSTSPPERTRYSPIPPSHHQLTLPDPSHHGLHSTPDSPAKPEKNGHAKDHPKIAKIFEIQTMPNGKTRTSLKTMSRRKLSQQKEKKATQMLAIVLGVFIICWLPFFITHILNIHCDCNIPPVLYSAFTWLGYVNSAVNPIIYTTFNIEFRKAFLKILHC
#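 DiscoveRx PathHunter D2 beta-arrestin cells (2,100/well) attached overnight, then compound-stimulated 90 min at 37 C in HBSS/10 mM HEPES/0.1% Tween-20 buffer; beta-galactosidase complementation read by luminescence after 1 h at ambient temperature. Dopamine 57 uM final (EC100) as control.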
# TRPML1 ag: activates the human TRPML1 channel | TRPML1-expressing cells, Ca2+ dye fluorescence, FDSS; host cell line not named in the record; reference of the full effect not given here | activation, % (test concentration not listed) | 410,000 tested, 0.12% active | AID 624414 | Q9GZU1; in the data active = activation above about 50%; inconclusive = about 30% to 50%; inactive = below about 30%; note: 0% is about no effect; the text of the record puts the active cut at 80%
# Target sequence (Q9GZU1 whole entry, looked up): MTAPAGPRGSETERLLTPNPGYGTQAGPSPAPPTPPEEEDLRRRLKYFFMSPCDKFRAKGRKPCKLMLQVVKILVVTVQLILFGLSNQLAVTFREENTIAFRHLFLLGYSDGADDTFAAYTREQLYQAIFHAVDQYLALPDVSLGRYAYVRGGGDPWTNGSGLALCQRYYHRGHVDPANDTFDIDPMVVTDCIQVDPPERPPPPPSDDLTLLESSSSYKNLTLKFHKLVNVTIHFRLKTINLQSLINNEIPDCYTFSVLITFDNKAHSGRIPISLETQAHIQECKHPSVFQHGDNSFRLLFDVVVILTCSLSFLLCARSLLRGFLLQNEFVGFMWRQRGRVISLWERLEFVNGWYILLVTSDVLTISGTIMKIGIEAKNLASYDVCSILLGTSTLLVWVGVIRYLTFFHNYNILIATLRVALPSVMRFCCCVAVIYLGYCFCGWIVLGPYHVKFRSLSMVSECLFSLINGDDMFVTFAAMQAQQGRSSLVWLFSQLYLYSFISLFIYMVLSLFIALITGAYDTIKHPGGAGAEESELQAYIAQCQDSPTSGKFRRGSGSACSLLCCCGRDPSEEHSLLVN
#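 Tet-induced TRPML1-DL cells, 1,500 per well, cultured overnight, were loaded with a no-wash Ca2+ dye for 45–90 min. Calcium fluorescence was recorded on the FDSS for 110 s after compound addition, before the EC80 agonist (4 uM 54-4) was added.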
# TRPML1 inh: inhibitors of human TRPML1 channel. AID 624415. Q9GZU1. activity change, negative = inhibition, % (no concentration beside the values). TRPML1-inducible cells, Ca2+ dye fluorescence, FDSS; hits give low values; inhibition of EC80 agonist-evoked calcium signal. 390,000 tested, 0.02% active; in the data active means activity change below about -50%; inconclusive means about -30% to -50%; inactive means above about -30%;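 note: stimulus is agonist 54-4 at its EC80 concentration; % is set by controls: 0 for no effect and ±100 for the full control effect; compound concentration not given in the record; the text of the record puts the active cut at -80%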
#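 TRPML1-DL cells, Tet-induced overnight (~16 h, 37 °C) at 1,500 cells/well, were loaded with Ca8 no-wash dye plus quencher for 45-90 min at room temperature. Compounds were pinned during FDSS kinetic reading; agonist 54-4 at EC80 (4 uM final) then added.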
# CtBP-E1A blk: CtBP/E1A binding inhibition. AlphaScreen GST-E1A/His-CtBP binding, 1536-well; hits give low values; control for the full effect not named in the record. activity change, % (no concentration beside the values). 340,000 tested, 0.49% active; in the data active means activity change below about -65%; inconclusive means about -30% to -65%; inactive means above about -30%; note: % is set by controls: 0 for no effect and ±100 for the full control effect; compound concentration not given in the record
#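 Protein mix (5X: 125 nM each GST-E1A, His-CtBP) was incubated with pinned compound 2 h at 37 deg C in dark, in 50 mM Tris pH 8.0 buffer with 300 mM NaCl. Glutathione donor and nickel acceptor beads followed; AlphaScreen signal read after 1 h.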
# * = called active by the depositor; ? = inconclusive; / = not tested or not shown; [ ] = dose if it differs, or a comment.
SMILES,Six1-Eya2 inh,PINK1 modulator,D2 agonist,TRPML1 ag,TRPML1 inh,CtBP-E1A blk
CCN1CCC(N(Cc2ccc(F)cc2)C(=O)Nc2cccc(C(F)(F)F)c2)CC1,/,7.6%,/,4.3,-27,/
CC1CCN(c2nc3ccccc3n2CC(=O)c2ccccc2)CC1,-1,8.8%,-2.2,2.3,9,/
COCc1nn2c(N)c(-c3ccccc3)cnc2c1-c1ccccc1,-9,9.9%,5.2,0.8,-4,-26
CCCN1CNC(=S)N(c2ccc(C)cc2C)C1,2,-0.9%,-2.6,-0.1,4,3
COc1ccc2ccccc2c1/C=N/N1C(=O)CSC1=S,-28,5.1%,4.5,0.1,5,0
COc1cc(NC(=O)N2CCSc3ccccc32)cc(OC)c1OC,/,0.2%,/,-0.2,-9,/
Cc1nc(NC(C)C)c2cnn(CCc3ccccc3)c2n1,3,1.0%,1.9,0.8,5,7
Cc1ccc(S(=O)(=O)N2CCC(C(=O)OCC(=O)N3C(C)CCCC3C)CC2)cc1C (stereo not drawn),-2,0.8%,-1.7,-0.1,-7,9
COc1ccccc1CN1CC(C(=O)NC2(c3ccccc3)CC2)CCC1=O (stereo not drawn),7,-0.8%,-5.8,0.5,17,-4
CC(=O)C1=C(C)NC(SCC(N)=O)=C(C#N)C1CC(C)C (stereo not drawn),8,0.4%,-0.3,-0.9,0,2
CC(C)(C)NC(=O)c1ccc2c(c1)N(CC(=O)N1CCN(c3ccc(F)cc3)CC1)C(=O)C(C)(C)O2,-5,2.7%,-7.7,0.3,-4,4
Cc1ccc(Cl)cc1NC(=O)CN1CCN(C(=O)C2CCCO2)CC1 (stereo not drawn),7,0.0%,-1.0,-0.2,6,-3
O=C(COC(=O)c1ccc2c(c1)OCO2)Nc1nc(-c2ccccc2)cs1,13,1.3%,-4.2,1.0,-14,0
CCC(=O)Nc1ccc2oc(-c3cccc(C)c3)nc2c1,1,-1.6%,1.0,-0.3,9,-3
OCC1(CCOc2ccccc2)CCN(Cc2ccc3c(c2)OCCO3)CC1,-1,0.2%,-2.6,-0.7,4,7
Cc1ccc(C(=O)c2oc3ccccc3c2NC(=O)C(C)Oc2ccccc2Cl)cc1 (stereo not drawn),/,2.3%,/,-0.1,-6,/
Cc1cnc(NS(=O)(=O)c2ccc(Cl)cc2)c(Br)c1,2,-0.2%,-6.4,1.8,0,1
CCS(=O)(=O)NCCc1cc2c(OC)ccc(OC)c2[nH]c1=O,-4,-1.0%,-2.1,-0.6,2,4
Nc1ncnc2c1ncn2CCNCCc1ccccc1,5,0.8%,-0.2,0.3,-18,1
CNc1c(NS(=O)(=O)c2ccc(Cl)cc2)c(=O)oc2ccccc12,-5,12%,-1.1,0.3,-4,-1

# Of the compounds above, 2 have fluorine.
SMILES,Six1-Eya2 inh,PINK1 modulator,D2 agonist,TRPML1 ag,TRPML1 inh,CtBP-E1A blk
CCN1CCC(N(Cc2ccc(F)cc2)C(=O)Nc2cccc(C(F)(F)F)c2)CC1,/,7.6%,/,4.3,-27,/
CC(C)(C)NC(=O)c1ccc2c(c1)N(CC(=O)N1CCN(c3ccc(F)cc3)CC1)C(=O)C(C)(C)O2,-5,2.7%,-7.7,0.3,-4,4

# One compound at a time, as listed above. Values in the order: Six1-Eya2 inh, PINK1 modulator, D2 agonist, TRPML1 ag, TRPML1 inh, CtBP-E1A blk
# OCC1(CCOc2ccccc2)CCN(Cc2ccc3c(c2)OCCO3)CC1 reads -1, 0.2%, -2.6, -0.7, 4, 7
# O=C(COC(=O)c1ccc2c(c1)OCO2)Nc1nc(-c2ccccc2)cs1 reads 13, 1.3%, -4.2, 1.0, -14, 0

# More entries
SMILES,Six1-Eya2 inh,PINK1 modulator,D2 agonist,TRPML1 ag,TRPML1 inh,CtBP-E1A blk
Cc1nn(CCCC(=O)Nc2c(F)cc(F)cc2Br)c(C)c1[N+](=O)[O-],0,1.2%,-4.7,-0.2,22,-2
COc1ccc(C(C)(O)c2nc(-c3ccc(C)c(C)c3)cs2)cc1 (stereo not drawn),7,15%,0.7,0.0,/,-1
CCOC(=O)C1(C)/C(=N/Nc2ccccc2)C(=O)C(=O)N1c1ccccc1 (stereo not drawn),-20,-0.8%,-3.6,1.3,-7,-20
COc1cccc2cc(-c3nc4ccc(C)cc4[nH]3)c(=O)oc12,/,4.0%,/,-0.1,-10,/
NC(=O)c1ccccc1NC(=O)C1CCCN(c2ncnc3onc(-c4ccc(F)cc4)c23)C1 (stereo not drawn),/,-0.4%,/,1.7,-1,/
O=S(=O)(NCC(c1cccnc1)N1CCN(Cc2ccccc2)CC1)c1ccccc1 (stereo not drawn),4,0.7%,-6.3,-0.4,0,-20
O=C(Nc1cccc(Cl)c1N1CCCC1)c1cccc(-c2cc3ccccc3oc2=O)c1,-2,8.2%[38.3 µM],-3.3,0.3,7,7
NC(=S)c1ncc(C(F)(F)F)cc1Cl,-17,2.6%,-3.4,-0.1,-5,6
Cc1ccc2cc(CCNC(=O)c3ccc(S(=O)(=O)N4CCCCC4)cc3)c(=O)[nH]c2c1,3,0.2%,4.4,-0.7,-2,6
COc1ccccc1CCN1CCCC(CN(C)CC(C)(C)CO)C1 (stereo not drawn),15,-1.0%,1.5,-0.2,-19,-13
CCC(NS(=O)(=O)c1ccc(C)cc1)C(=O)N1CCOCCOCCOCC1 (stereo not drawn),7,-0.4%,-4.5,-0.4,10,-10
CN1CCn2cnc(C(=O)NCC(=O)OC(C)(C)C)c2C1=O,-5,1.2%,-2.3,0.0,-3,6
Cc1ccc(-n2c(=O)c3c(C)c(C)sc3n(Cc3ccc(F)cc3Cl)c2=O)cc1C,/,2.1%,/,0.4,-18,/
CC(=O)Nc1ccc(OCC(=O)N2CCc3ccccc3C2)cc1,-2,0.0%,-6.0,-0.2,-5,3
Cn1c(CCNC(=O)C(C)(C)C)nc2ccccc21,4,3.1%,-1.4,-0.1,22,5
Cc1ccc(S(=O)(=O)CC(=O)Nc2ccc(Cl)cn2)cc1,8,3.9%,0.9,1.4,-23,16
O=C(C[n+]1cc(-c2ccc(F)cc2)n2c1CCC2)Nc1nc(-c2ccccc2)cs1,?,-0.5%,-2.0,2.1,11,?
CN1C(=O)c2ccccc2CC12c1ccccc1C(=O)N2C (stereo not drawn),0,1.5%,-2.7,-0.6,-13,-2
CCOC(=O)CSc1nnc(CNc2nc(-c3ccccc3)cs2)n1C,?,-0.9%,0.0,0.7,36,-20
CCCCCNC(=O)CN(c1ccc2c(c1)OCO2)S(C)(=O)=O,3,1.6%[38.3 µM],-4.3,0.1,2,6

# In a second layout: entries from further up
# The line under a structure holds: Six1-Eya2 inh | PINK1 modulator | D2 agonist | TRPML1 ag | TRPML1 inh | CtBP-E1A blk
CC(=O)Nc1ccc(OCC(=O)N2CCc3ccccc3C2)cc1
    -2 | 0.0% | -6.0 | -0.2 | -5 | 3
Cc1ccc(S(=O)(=O)CC(=O)Nc2ccc(Cl)cn2)cc1
    8 | 3.9% | 0.9 | 1.4 | -23 | 16
Cc1ccc(-n2c(=O)c3c(C)c(C)sc3n(Cc3ccc(F)cc3Cl)c2=O)cc1C
    / | 2.1% | / | 0.4 | -18 | /

# Other entries follow:
SMILES,Six1-Eya2 inh,PINK1 modulator,D2 agonist,TRPML1 ag,TRPML1 inh,CtBP-E1A blk
CC(C)(C)c1ccc(/C=C/C(=O)NC2CCS(=O)(=O)C2)cc1 (stereo not drawn),1,1.2%,-4.1,0.1,8,-4
CCC1CCCCN1C(=O)CSc1nnc2nc(C)cc(C)n12 (stereo not drawn),6,-1.3%,2.5,-0.1,6,-1
COc1ccc(-c2cn3c(n2)sc2cc(C(=O)Nc4ccccc4F)ccc23)cc1,/,8.5%,/,0.6,-8,/
COc1ccccc1OCC(=O)N1CCN(C(=O)COc2ccccc2OC)CC1,22,0.8%,0.3,-0.3,-2,7
COc1ccc(CN2C(CC(=O)Nc3cccnc3)c3ccc(C(F)(F)F)cc3S2(=O)=O)cc1 (stereo not drawn),4,-0.6%,-1.2,4.0,12,2
COc1ccc(C(=O)N/N=C(\C)c2ccc(NC(=O)Cc3ccccc3)cc2)c(OC)c1,3,1.4%,-4.5,-0.3,-1,0
Cc1cc2nn(-c3ccc(F)cc3)nc2cc1NC(=O)c1ccc(OC(C)C)cc1,/,-0.6%,/,3.1,5,/
Cc1c2n(c3ccccc13)CCC2=O,0,-0.7%,8.9,1.3,7,2
O=C(N/N=C/c1ccc(OC2CSC2)cc1)c1ccc(CN2CCOCC2)cc1,-2,8.2%,-1.1,-0.5,37,0
O=C(C1CCN(S(=O)(=O)c2cccnc2)CC1)N1CCN(c2cccc(Cl)c2)CC1,-2,1.1%,0.8,-1.0,10,1
COc1ccc(Cn2c(-c3ccc(OC)cc3)nc3ccccc32)cc1,-1,1.0%,-1.6,-0.4,-5,4
Nc1ccccc1C(=O)NNC(=O)C(=O)/C=C(\O)c1ccccc1,-9,0.8%,2.4,0.3,-1,6
CC(=O)c1cccc(NC(=O)CNC(=O)c2cc3ccccc3o2)c1,2,0.9%,0.1,-0.5,-4,1
COc1ccc(-c2cnc3ccccc3n2)cc1NC(=O)CNC(=O)c1ccccc1,2,17%,1.6,-1.1,8,15
Cc1onc(-c2c(Cl)cccc2Cl)c1C(O)c1ccc(F)cc1 (stereo not drawn),8,0.6%,-0.7,-1.2,-2,9
CON=C(C(=O)NC1C(=O)N2C(C(=O)O)=C(CSc3nc(=O)c(=O)[nH]n3C)CSC12)c1csc(N)n1 (stereo not drawn),-25,0.3%,-5.4,0.3,-8,-10
Fc1ccc(NC(=S)Nc2cccc3ccccc23)cc1,0,0.9%,-3.6,-0.8,3,/
O=C(Nc1ccc(S(=O)(=O)NCc2ccccc2)cc1)Nc1ccc2c(c1)OCO2,-10,14%[38.3 µM],0.6,1.8,-2,-8
CCOc1ccc(NC(=O)C2CC3CCC2C3)cc1 (stereo not drawn),2,-0.4%,-3.2,0.8,1,4
NC(=O)c1cccc(-c2ccnc3c2CC(C(=O)NCc2cccc(Cl)c2)O3)c1 (stereo not drawn),-3,3.5%,-0.5,-0.4,/,-6
COc1ccc(CN2C(=O)C(CC(=O)NCCN3CCOCC3)CC(C(=O)N3CCOCC3)=C2C)cc1 (stereo not drawn),-1,-1.4%,0.4,-0.3,-6,3
OCC1(CCc2ccccc2)CCCN(C/C=C/c2ccccc2)C1 (stereo not drawn),-5,9.1%,5.3,-0.4,-2,-4
CC(C)(C)c1ccc(S(=O)(=O)NC(=O)C2(C)CCN2C(=O)CC2CCCC2)cc1 (stereo not drawn),-1,-0.3%,-1.9,-0.5,/,7
O=S(=O)(c1ccccc1)N1CCC(c2ccccc2)CC1,6,2.6%,-1.7,0.8,7,18
COc1ccc(C2=NN(C(C#N)c3ccc(OC)cc3)C(c3ccccc3)C2)cc1 (stereo not drawn),26,11%,-11,-0.9,12,18

# Source: PubChem BioAssay
